Screening data (PubChem)
Sa RN4220 lethal – growth inhibition of S. aureus RN4220, primary screen, OD600. 16 h. inhibition, % (concentration not given with the values). 330,000 tested, 0.33% active. AID 1259311, 2017;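 active = z-score of -3 or lower and OD600 up to 0.18 on both plates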;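 note: plate controls were untreated cells for no effect and reference antibiotic for full effect; stock transfer was 100 nL into about 80 µL; one replicate is shown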
PrP 5UTR inh – inhibition of PrP 5' UTR reporter expression. 340,000 tested, 0.35% active. inhibition, % (no concentration beside the values). cell-based PrP 5' UTR mRNA reporter, plate reader. AID 488862, 2010;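 active = every replicate at 50% or more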;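 note: 0 = median of the neutral control wells; tested in H4 reporter cells; numbers are from one replicate; inactives centre near -14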
Sa ugtP lethal – growth inhibition of ugtP-null S. aureus, primary screen, RN4220 ugtP deletion, OD600; growth inhibition, % (test concentration not listed); 16 h; some inactives read as strong as hits; AID 1259309, 2017; 330,000 tested, 0.54% active;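 active = z-score under -3 and OD600 up to 0.15 on both plates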;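 note: plate controls were untreated wells for no effect and antibiotic for full effect; wells of about 80 µL received 100 nL stock; the first replicate is given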
BJeLR viability – MLPCN primary cell-based screen for lethality selective to Ras in HRASV12 cells; inhibition, % (test concentration not listed); AID 1554, 2009; 300,000 tested, 0.17% active; BJeLR (HRASV12) viability, CellTiter-Glo ATP luminescence, 48 h; reference of the scale not given here;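 active = replicate mean above 50%; inconclusive = above 50% but judged a plate artefact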;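 note: 50 nL library stock added to about 25 µL; numbers are from one replicate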
Autofluor counter – counter-screen for toxin protease inhibitors: compound fluorescence. 360,000 tested, 3.1% active. compound autofluorescence counterscreen, microsphere flow cytometry; stronger effect = higher value. fluorescence intensity (test concentration not listed). AID 624483;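 active = at least 3 SD above the mean of all compounds, about 16000 in these data; inconclusive = too few beads counted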;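 note: 100 nL of 1 mM stock went into each well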
Mtb hypoxia inh – PubChem AID 1159583; M. tuberculosis hypoxia-regulated fluorescent reporter, fluorescence; 300,000 tested, 0.1% active; fluorescence inhibition, % (test concentration not listed);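 active = 35 to 45% if threefold the growth effect, above 45% if 1.5-fold the growth effect; inactive = the rest, general growth blockers included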;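 note: wells of about 50 µL received 100 nL stock; 0% = vehicle wells and 100% = reference inhibitor wells; whole bacteria with a GFP reporter of the hypoxia response; strong numbers were not always called active; many hits fall short of the cut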
Mtb hypoxia inh growth – also measured in Mtb hypoxia inh; calls as there; growth inhibition, %; measured here: M. tuberculosis growth (absorbance);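 0% = vehicle and 100% = reference antibiotic; read after six days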
* hit, by the source's call; u = inconclusive; x = not tested or not shown.

Under each structure – Sa RN4220 lethal	PrP 5UTR inh	Sa ugtP lethal	BJeLR viability	Autofluor counter	Mtb hypoxia inh	Mtb hypoxia inh growth
1) CC1=C(C(=O)OCc2ccccc2)C(c2ccco2)n2ncnc2N1 (stereo not given)
    -5.4	-26.7	-4.9	-0.5	5557	x	x
2) Cn1c(SCC(=O)NCc2ccccc2)nnc1C1CC1
    -1.9	-15.8	7.1	-10.4	3462	x	x
3) O=C(COC(=O)/C=C/c1cccc(C(F)(F)F)c1)Nc1cccc2ccccc12
    2.5	3.5	-2.4	1.9	1963	-0.5	-2.9
4) CC(/C=C/c1ccccc1)=NNC(=O)c1ccc(Br)cc1
    4.8	x	1.9	x	x	1.7	3.1
5) O=C(NCc1ccco1)c1ccc(Cn2cc([N+](=O)[O-])cn2)o1
    6.1	-7.8	20.8	-2.4	7840	3.6	0.5
6) CC1(C)Cc2cccc(OCC(=O)OCC(=O)Nc3ccc(C(N)=O)cc3)c2O1
    3.1	-16.2	5.1	-7.1	4360	5.4	-5.9
7) Cc1nn(-c2ccc(C(=O)N3CCN(S(=O)(=O)c4ccccc4C(F)(F)F)CC3)cc2)c(C)c1Cl
    8.3	-21.5	9.4	x	2981	2.5	0.5
8) Cc1cccc(SCC(=O)Nc2ccccc2[N+](=O)[O-])c1
    -1.8	-14.1	6.7	-7.6	3803	6.6	-6.3
9) Cn1c(=O)oc2cc(S(=O)(=O)N3CCN(c4ccccc4)CC3)ccc21
    2.8	-23.5	-3.1	2.1	9366	8.1	1.9
10) Cc1cccc2sc(N(CCCN(C)C)C(=O)c3ccc4ncsc4c3)nc12
    -2.4	-2.0	-8.6	-8.6	6188	2.4	2.4
11) COC(=O)COc1ccc(NS(=O)(=O)c2cccc([N+](=O)[O-])c2)cc1
    -3.1	-12.0	-8.3	2.8	3930	-3.8	2.2
12) CCOC(=O)c1c(S(=O)(=O)N2CCCC(C(=O)Nc3ncccc3C)C2)c(C)n(C)c1C (stereo not given)
    4.5	-8.4	1.6	1.1	5081	12.5	-1.3
13) COc1ccc(-c2c(C(C)=O)c(C)nc3sc4c(=O)n(-c5ccc(C)cc5)nnc4c23)cc1
    -2.4	-10.4	-6.6	2.0	3010	-6.2	8.0
14) O=c1c2nnn(Cc3ccc(Cl)cc3)c2ncn1Cc1ccc(F)cc1
    -1.5	-5.7	14.6	-9.6	22862*	3.8	10.2
15) CCc1ccc(OCC(=O)OCC(=O)NC2CCCC(C)C2C)cc1 (stereo not given)
    7.0	-29.9	-1.3	x	3972	4.8	8.4
16) CC(=O)CSc1ccc(S(=O)(=O)N2CCN(C)CC2)cn1
    -1.7	-12.4	0.5	x	4368	1.1	0.1
17) CCSc1nnc(NC(=O)NC(CC)(C(F)(F)F)C(F)(F)F)s1
    44.8	-18.0	-11.5	-10.5	3444	-11.7	-1.4
18) Cc1cc(=O)oc2c1c(C)nn2-c1ccc(Br)cc1
    6.9	4.6	3.1	1.7	3430	0.9	2.6
19) Cc1cc(C)c2c(N)c(C(=O)NN=Cc3cccnc3)sc2n1
    6.4	x	-1.8	x	x	-14.0	-13.4
20) Cc1cc(=O)oc2cc(OCC(=O)N3CCN(c4ccccc4)CC3)ccc12
    3.9	-35.0	7.0	x	3596	1.4	2.9
21) O=C1CC(c2ccccc2)=NN1c1ccccc1
    1.9	7.7	3.2	x	2740	6.2	3.4
22) COc1ccc(CN2CCN(c3cc(C)nc4c5c(C)cc(C)nc5nn34)CC2)cc1F
    1.8	-41.8	2.3	-3.7	u	-10.3	-7.9
23) O=C1CCCC=CCC(CC(=O)N(CCO)Cc2ccccc2)C(=O)NC(c2ccccc2)CO1 (stereo not given)
    3.7	x	-1.7	x	x	4.1	8.2
24) O=[N+]([O-])c1ccccc1O[C@@H]1O[C@H](CO)[C@H](O)[C@H](O)[C@H]1O
    2.5	-7.3	2.3	-7.0	x	-1.7	-4.5
25) COC(=O)c1ccccc1S(=O)(=O)NNC(=O)c1nn(C)c(=O)c2ccccc12
    1.9	-8.6	-0.6	x	3725	2.3	0.6
26) Cn1cc(CNC(=O)C2c3ccccc3Oc3ccccc32)cn1
    9.0	-9.5	1.5	4.1	3033	9.4	5.4
27) Cc1cc(N)n(-c2ccc(Cl)cc2)n1
    -1.9	-27.2	-0.9	-2.5	4497	1.5	-4.4
28) CCOC(=O)c1c(CSc2ccccc2)n(C)c2ccc(O)c(CN3CCOCC3)c12
    -3.3	-17.0	-11.0	-4.6	6251	-0.9	15.0
29) C=CCN(CC=C)CCOc1cc(C)ccc1[N+](=O)[O-]
    2.9	1.4	2.9	5.1	2239	12.8	5.0
30) CCC(C)[C@H](NC(=O)N1CC(=O)Nc2ccccc21)C(=O)Nc1ccccc1C (stereo not given in full)
    3.5	-15.7	8.3	7.7	6337	5.9	-2.6
31) CCCN(C(=O)C(=O)Nc1ccc2nc3n(c(=O)c2c1)CCCCC3)c1ccc(OCC)cc1
    -1.0	-21.2	9.9	-7.4	3389	3.6	1.2
32) CC1CN/C(=C\C(=O)c2ccc(Br)cc2)C(=O)N1 (stereo not given)
    4.7	-30.4	5.6	3.9	10481	-1.9	7.9
33) COc1ccc(C(=O)CC(=O)C(=O)Nc2cc(Cl)c(OC)cc2OC)cc1
    4.0	-2.2	0.9	1.2	4435	12.0	6.9
34) N#Cc1ccc2[nH]c(CO)c(-c3ccccc3)c2c1
    x	0.2	x	-9.7	3140	x	x
35) O=C(NN=Cc1ccc([N+](=O)[O-])o1)c1cn2ccc3ccccc3c2n1
    52.8	x	100.5*	x	x	11.4	7.5
36) O=C1CCc2ccc(NC(=O)C3CC3)cc2N1
    0.4	-33.4	-2.4	-14.4	3893	5.7	9.8
37) CCOC(=O)N1CCN(S(=O)(=O)c2c(C)nc3sccn3c2=O)CC1
    6.6	7.6	9.7	-3.0	4486	-1.3	1.0
38) CCSC(=S)c1c(C)[nH]n(-c2ccccc2)c1=O
    71.8	-29.9	72.8	7.9	3731	10.2	13.9
39) Cc1cccc(NS(=O)(=O)c2cnc(Cl)c(Br)c2)n1
    5.7	7.9	-3.3	-8.5	2775	7.3	-8.1
40) O=C(Nc1ncccc1O)c1ccc(NS(=O)(=O)c2ccc3[nH]c(=O)[nH]c3c2)cc1
    3.6	-29.9	9.8	x	u	2.2	-1.5

One compound at a time, from the list above.
Shown for COc1ccc(C(=O)CC(=O)C(=O)Nc2cc(Cl)c(OC)cc2OC)cc1 → Sa RN4220 lethal = 4.0; PrP 5UTR inh = -2.2; Sa ugtP lethal = 0.9; BJeLR viability = 1.2; Autofluor counter = 4435; Mtb hypoxia inh = 12.0; Mtb hypoxia inh growth = 6.9
Shown for O=C(NN=Cc1ccc([N+](=O)[O-])o1)c1cn2ccc3ccccc3c2n1 → Sa RN4220 lethal = 52.8; PrP 5UTR inh = x; Sa ugtP lethal = 100.5*; BJeLR viability = x; Autofluor counter = x; Mtb hypoxia inh = 11.4; Mtb hypoxia inh growth = 7.5

Continuation:
Under each structure – Sa RN4220 lethal	PrP 5UTR inh	Sa ugtP lethal	BJeLR viability	Autofluor counter	Mtb hypoxia inh	Mtb hypoxia inh growth
41) CCN(CC)C(=O)C1CCCN(Cc2cccc(F)c2)C1 (stereo not given)
    0.1	-12.3	-1.9	9.4	10098	1.5	4.3
42) COc1ccc(S(=O)(=O)CCc2nnc(NC(C)=O)s2)cc1
    1.3	-13.8	3.4	-0.8	2534	4.6	6.4
43) COc1ccccc1C1C(C(C)=O)=C(C)N=c2sc(=Cc3cc(OC)c(OC)c(OC)c3)c(=O)n21 (stereo not given)
    -2.0	x	-5.7	x	x	0.4	9.4
44) Fc1ccccc1/C=N/n1c(-c2cccnc2)n[nH]c1=S
    x	-7.7	x	-2.4	3472	x	x
45) O=C(Nc1ccnn1C1CCN(Cc2ccccn2)CC1)c1cccc(F)c1
    0.4	-5.0	4.0	-3.1	6042	3.3	4.3
46) CCOCCOC(=O)COc1ccc2c(-c3ccccc3)cc(=O)oc2c1
    8.4	-4.9	3.3	-7.5	2344	4.5	-1.2
47) CCOC(=O)C1CCN(S(=O)(=O)c2ccc3c(c2)CCN3C(=O)C2CCC2)CC1
    0.6	-31.9	2.4	-4.2	5926	8.4	6.6
48) O=C(Cn1ncc2c3ccccc3n(Cc3ccccc3F)c2c1=O)N1CCN(c2ccccn2)CC1
    0.9	-5.1	-13.9	2.0	6756	-0.2	4.3
49) COC(=O)C(C(=O)Nc1ccccc1C)C1CCCCCC1 (stereo not given)
    6.4	-23.7	3.5	-1.3	4473	6.6	-1.0
50) COc1cc(OC)cc(-c2sc3ccc(OC)cc3c2C#CC(C)(C)O)c1
    -11.5	-20.4	4.3	x	4233	7.3	6.3
51) CCOc1cc(NC(=S)NCCCN2CCOCC2)c(OCC)cc1NC(=O)C1CCCCC1
    0.2	-11.8	5.7	-24.4	3429	3.0	2.0
52) O=P(Nc1ccccc1)(Nc1ccccc1)c1ccccc1
    3.4	-8.0	1.9	x	2763	0.7	6.1
53) CCOc1ccccc1NC(=O)CC1Nc2cc(C)c(C)cc2NC1=O (stereo not given)
    -1.7	-15.4	-5.1	-1.7	2569	3.8	-3.7
54) CCCCN(C(=O)C(C)(C)Oc1ccc(Cl)cc1)c1c(N)n(CCC)c(=O)[nH]c1=O
    0.3	-0.8	-1.6	x	3411	5.4	1.4
55) CCOc1ccc(-n2c(N)c(-c3nc4ccccc4[nH]3)sc2=S)cc1
    -7.4	-5.9	9.6	0.0	3101	x	x
56) COc1cccc(NC(=O)CNC(=O)c2ccccc2)c1
    1.1	-29.6	-1.6	7.1	2419	15.2	8.9
57) CCOc1ccc(C(=O)O/N=C(\N)c2ccccn2)cc1
    1.6	84.0*	0.4	3.0	3621	10.3	4.0
58) N#CCC(=O)NN=Cc1cc([N+](=O)[O-])ccc1N1CCOCC1
    5.0	x	6.3	x	x	-9.5	-3.4
59) O=C(CCNS(=O)(=O)c1ccc2[nH]c(=O)oc2c1)NCc1ccc(F)cc1
    -2.4	-17.8	-2.3	14.9	6187	0.4	13.2
60) CCc1cccc(NC(=O)c2snc3c(=O)[nH]cnc23)c1
    3.2	-13.5	-4.8	9.0	2863	x	x
61) CC(=O)Nc1ccc(OCc2ccc3c(c2)OCO3)cc1
    3.2	-43.8	2.3	10.8	3234	6.2	2.0
62) O=C(NC1CCCCC1)c1ccc(CNc2ccccc2)o1
    -2.2	-6.8	-1.8	5.7	4151	3.6	-0.6
63) CCN(CC)c1ccc(C(=O)OCC(=O)Nc2cc3oc4ccccc4c3cc2OC)cc1
    2.0	-15.9	11.4	16.8	2044	14.4	0.9
64) N/C(Cc1cccs1)=N\OC(=O)COc1ccc(Br)cc1
    5.6	-30.2	19.1	-6.0	2267	x	x
65) O=S(=O)(N1CCOCC1)n1nnc2ccccc21
    -1.6	-14.6	-7.5	0.5	10147	-8.6	-1.4
66) CN1C(C(=O)NCc2ccccc2)CC2Cn3c(nc4ccccc43)C21 (stereo not given)
    4.0	-7.7	0.5	-11.0	2992	20.4	7.2
67) COCCn1c(SCC(=O)Nc2nc(C)cs2)nnc1C(C)C
    2.6	-13.5	9.6	-5.2	2997	5.3	-1.8
68) N#CCCN(Cc1ccncc1)C(=S)NC1CC2C=CC1C2 (stereo not given)
    1.8	-24.5	6.2	0.9	x	4.0	12.1
69) COc1ccc(NS(=O)(=O)c2cccc(C(=O)N/N=C/c3cn(-c4ccccc4)nc3-c3ccccc3)c2)cc1
    x	-14.1	x	-0.1	4401	x	x
70) Cc1cccc(-n2c(O)c(C=Nc3ccc4c(c3)OCO4)c3ccccc3c2=O)n1
    -0.4	-30.0	-5.5	-7.9	2879	x	x
71) Cc1cccc(N2N=C(C(=O)Nc3nc(C)cs3)CCC2=O)c1
    -4.5	-9.6	-15.7	15.4	4416	-5.1	5.5
72) O=C(CSc1nc2ccsc2c(=O)n1Cc1ccc(C(=O)O)cc1)NCC1CCCO1 (stereo not given)
    0.1	-3.2	1.8	6.8	7180	5.8	1.5
73) COc1ccccc1-c1nnc(SCC(=O)N2CCCC2)o1
    3.4	-17.4	0.4	7.2	7235	15.6	-4.3
74) Cc1nnc(NC(=O)CSc2nnc(-c3ccco3)n2C(C)C)s1
    2.7	-20.4	12.9	-11.2	5386	-8.4	4.6
75) CCC(Oc1ccccc1)C(=O)NC1CCCCCC1 (stereo not given)
    1.0	-32.1	-0.4	-3.9	5113	13.9	-3.4
